Screening data from PubChem.
VDR inh = Inhibitors of the vitamin D receptor (VDR): qHTS | VDR-SRC2-3 peptide fluorescence polarization, 2 h | Potency, µM, for the others: max response, negative = inhibition, usual class: inhibitors | 400,000 tested, 0.93% active; active = well fitted inhibition curve with a large enough effect; inconclusive = small, poorly fitted or top-dose-only effect, or another doubt; inactive = no such curve, though single readings can be large or run the other way; also: series mostly up to about 120 µM
Target sequence (P11473 whole entry, looked up): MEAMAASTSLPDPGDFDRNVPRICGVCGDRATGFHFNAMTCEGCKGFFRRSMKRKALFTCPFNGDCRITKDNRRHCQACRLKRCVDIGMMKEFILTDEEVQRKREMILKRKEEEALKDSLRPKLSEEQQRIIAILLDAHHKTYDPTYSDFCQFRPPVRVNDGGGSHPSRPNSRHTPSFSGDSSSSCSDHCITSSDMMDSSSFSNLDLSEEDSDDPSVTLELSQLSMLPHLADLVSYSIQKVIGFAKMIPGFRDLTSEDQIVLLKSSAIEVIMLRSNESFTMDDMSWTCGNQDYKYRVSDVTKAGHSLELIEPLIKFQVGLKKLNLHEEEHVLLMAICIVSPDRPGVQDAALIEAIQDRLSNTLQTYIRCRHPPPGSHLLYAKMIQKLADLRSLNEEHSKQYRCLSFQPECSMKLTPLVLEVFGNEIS
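FP read-out; VDR + SRC2-3 coactivator peptide; 23 nl compound by pintool; 2 h RT incubation; reagents held at 4 deg C, protected from light.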
* = called active by the depositor; u = inconclusive; [ ] = dose if it differs, or a comment. % is scaled to controls: 0 for no effect and ±100 for the full control effect; potency is read from the fitted curve at half-maximal effect. The list is partial (hit frequency here may not be typical).

VDR inh | SMILES
5% | Cc1cc(C)nc(SCC(=O)Nc2cc(C)on2)n1
-1% | Cc1ccccc1NC(=O)c1nc(-c2ccncc2)no1
-8% | Nc1ncnc2c1c(I)cn2[C@@H]1C[C@H](N)[C@@H](O)[C@H]1O
-15% | CN(C)S(=O)(=O)c1ccc(Cl)c(NC(=O)COC(=O)C2CSC3(C)CCC(=O)N23)c1 (configuration not stated)
-13% | CC(O)[C@H]1CNC(=O)C(=O)N1CC(C)(C)C (some centres not stated)
16% | CN(CC(=O)Nc1c(Cl)cccc1Cl)C(=O)CCc1nc2sc3c(c2c(=O)[nH]1)CCCC3
-4% | CCOc1ccc(-c2cc(C(=O)NCCCN3CCN(CC)CC3)c3ccccc3n2)cc1
-9% | S=C1NCN(Cc2cccnc2)CN1c1cccc(Cl)c1
11% | CCOC(=O)c1ccc(-n2c(CN3CCN(CC)CC3)nc3ccc([N+](=O)[O-])cc3c2=O)cc1
2% | CCOC(=O)C1=C(CSc2nc(-c3ccccc3)ccc2C#N)OC(N)=C(C#N)C1c1ccccc1 (configuration not stated)
7% | O=C(Nc1ccc2ccccc2n1)Nc1cccs1
-4% | COC(=O)c1sc(NC(=O)COc2ccccc2)nc1C
3% | COc1ccc(-c2onc(C)c2C)cc1S(=O)(=O)NCc1ccc(Br)cc1
-11% | Cc1cc2c(cc1C)NC(=O)CC(C(F)(F)C(F)(F)C(F)(F)F)=N2
0% | O=c1cc(-c2ccc(F)cc2F)[nH]c2ccc(F)cc12
4% | C=C1CCN([C@@H](CC(C)C)C(=O)NN2CCOCC2)S(=O)(=O)c2ccccc21
8% | CCCOc1ccc(OCCSc2nnc(N)s2)cc1
11% | O=C(COC(=O)c1cc[n+]([O-])cc1)Nc1ccc(Br)cc1
14% | COC(=O)CCc1c(C)c(C(=O)c2cccc(OC)c2OC)c2ccccn12
-1% | C[C@H](Nc1ccc(C(F)(F)F)cc1[N+](=O)[O-])C(=O)O
2% | Cn1c(=O)c2[nH]c(CCc3ccncc3)nc2n(C)c1=O
9% | CCN1CCN(CCCNC(=O)c2cnn(-c3ccccc3)c2C2CCN(C(=O)OC(C)(C)C)CC2)CC1
-7% | N#Cc1ccc(C(=O)OCC(=O)N2CCCCCC2)cc1
u | O=C(Oc1csc(=S)n1C(=O)c1ccccc1)c1ccccc1
-12% | O=C(Nc1ccccc1-c1ccccc1)C1CCCC1

A different layout for 2 compounds above.
> Cc1ccccc1NC(=O)c1nc(-c2ccncc2)no1
  VDR inh: -1%

> Nc1ncnc2c1c(I)cn2[C@@H]1C[C@H](N)[C@@H](O)[C@H]1O
  VDR inh: -8%

Next part:
VDR inh | SMILES
-9% | COc1cc2[nH]c(C(=O)N(C)C3CCS(=O)(=O)C3)cc2c(OC)c1OC (configuration not stated)
10% | COc1cc(/C=C/C(=O)O)cc(S(=O)(=O)Nc2ccc3c(c2)CCC3)c1OC
-4% | CCc1ccccc1N(C)C(=O)c1cn(-c2cccc(OC)c2)c(=O)c2ccccc12
-3% | Cc1ccccc1OCc1ccc(-c2nc(C#N)c(NCc3cccnc3)o2)o1
11% | O=S(=O)(c1ccc(Cl)cc1)c1nc(-c2cccs2)oc1SCc1ccc(F)cc1
12% | COc1ccc(CNC(=O)Cn2c(SCC(=O)N(C)c3ccccc3)nc3ccccc32)cc1
-3% | COc1ccc(N(CC(=O)N/N=C/c2ccc(C(=O)O)cc2)S(=O)(=O)c2ccc(NC(C)=O)cc2)cc1
1% | COc1ccccc1C(=O)NNC(=O)c1cccc(O)c1
12% | COc1ccc(S(=O)(=O)N2CCN(C(=O)C3CCCO3)CC2)cc1 (configuration not stated)
-5% | O=C(NNc1ccc(F)cc1)c1c(F)cccc1Cl
-7% | COCCNc1nnc(SCC(=O)NC(=O)c2ccc(Cl)cc2)s1
-6% | CCOC(=O)c1cccc(NC(=O)CSc2nnc(COc3ccccc3)n2CC)c1
5% | COc1ccc(N2CCN(c3nc(=S)n(-c4ccccc4)c(C)c3C(C)=O)CC2)cc1
14% | COc1ccc(Br)cc1/C=N/NC(=O)Cn1nnnc1N
-20% | O=C(Nc1ccc2ccccc2c1)c1cccc(F)c1
-8% | CC(C)CN(C(=O)C(C)N1C(=O)c2ccccc2C1=O)c1c(N)n(Cc2ccccc2)c(=O)[nH]c1=O (configuration not stated)
-4% | CCN(CC)C(=O)c1cc2c(=O)c3cc(Cl)ccc3oc2nc1C
-17% | CC1CN(Cc2nc3c(c(=O)[nH]c(=O)n3C)n2CCCc2ccccc2)CC(C)O1 (configuration not stated)
13% | O=C(NC1CCCCC1)N1CCN(C(=O)c2ccco2)CC1
-4% | CCOC(=O)c1ccc(NC(=O)c2n[nH]c(=O)c3ccccc23)cc1
40%[activator] | COc1cc(NC(=O)CSc2nc(=O)n(CCN3CCOCC3)c3c2CCCC3)cc(OC)c1
-23% | Cc1cc2nnc(SC(C)C#N)n2c2ccccc12 (configuration not stated)
-21% | CSc1oc(-c2cccs2)nc1S(=O)(=O)c1ccccc1
-4% | Cc1ccc(C)c(Nc2ncccc2C(=O)NCc2cccs2)c1
6% | CCc1ccc(CNC(=O)c2ccc(OC3CCN(C(C)=O)CC3)c(OC)c2)nc1

Two records picked at random from those above:
VDR inh | SMILES
-7% | COCCNc1nnc(SCC(=O)NC(=O)c2ccc(Cl)cc2)s1
-4% | CCc1ccccc1N(C)C(=O)c1cn(-c2cccc(OC)c2)c(=O)c2ccccc12

The results go on:
VDR inh | SMILES
12% | CCn1c(NC(=O)c2cccs2)c(-c2cccs2)c(=O)c2ccccc21
6% | Brc1cc2c(cc1C1OCCO1)OCO2
20% | CCOC(=O)N1CCC(N(CCOC)C(=O)Nc2ccc(Cl)c(Cl)c2)CC1
u | CCOC(=O)C1CCN(C(=O)CCc2nnc3ccc(N4CCC(C)CC4)nn23)CC1
10% | CC(C)OCCCNC(=O)c1ccc(Cn2c(=O)c3cccn3c3cccnc32)cc1
3% | COc1ccc2nc(N3CCCC3)[nH]c2c1
2% | Cc1ccc(S(=O)(=O)NCC(=O)N(CC(=O)NC(C)(C)C)Cc2cccs2)cc1
-2% | C=CCNc1nc(C)c(CNc2c(C)cc(C)cc2C)nc1C#N
-12% | CCN(CC)C(=O)Cn1cc(SCC(=O)Nc2cccc(F)c2)c2ccccc21
3% | COc1ccc(C(=S)N2CCN(C)CC2)cc1Br
10% | O=C(O)CSc1nnc(-c2ccc3c(c2)OCO3)o1
-6% | C=C(C)[C@@H]1CC=C(CN2CCC(CCOC)(C(=O)OCC)CC2)CC1
-11% | COC(=O)c1cc2c(cc1Cl)N1CCCCCC1=NS2(=O)=O
-12% | CCCCOC(=O)Nc1ccc(N2CCCCC2)cc1
-4% | COc1ccc(Cn2c(C)ccc2C)cc1
0% | Cc1ccc(OCC(=O)Nc2ccc(F)cc2)cc1C
-17% | CC(C)SCc1cc(N2CCCC2)nc(-c2ccccc2)n1
-26% | Cc1ccc(C(=O)NC(=S)N2CCN(c3ccc([N+](=O)[O-])cc3)CC2)cc1
-8% | Cn1c(N2CCCC2)nc2c1c(=O)n(Cc1ccc(F)cc1)c(=O)n2C
-9% | Cn1c(SCC(=O)Nc2ccc3c(c2)OCO3)nnc1C(F)(F)F
-5% | Cc1cccc(C(=O)Nc2nnc(S(=O)(=O)N(C)Cc3ccccc3)s2)c1
u | O=C(NCc1cccs1)c1ccc(S(=O)(=O)N2CCCCC2)cc1
6% | Cc1ccccc1C(=O)Nc1cccc(NC(=O)c2ccc(-c3ccc(Br)cc3)o2)c1
-1% | COc1cccc(/C=C2\N=C3CCCCCN3C2=O)c1
-8% | Cc1ccc(CN(C)C(=O)CSc2nnc3n2CCCCC3)c(C)c1

The closing 3 entries of the part above come first, to join the parts:
VDR inh | SMILES
6% | Cc1ccccc1C(=O)Nc1cccc(NC(=O)c2ccc(-c3ccc(Br)cc3)o2)c1
-1% | COc1cccc(/C=C2\N=C3CCCCCN3C2=O)c1
-8% | Cc1ccc(CN(C)C(=O)CSc2nnc3n2CCCCC3)c(C)c1
-9% | CC(=O)c1ccc(S(=O)(=O)N2CCN(C(=O)c3cccc(S(=O)(=O)N4CC(C)OC(C)C4)c3)CC2)cc1 (configuration not stated)
-5% | CCCCCCc1nnc(N)s1
u | CCCCN(CC(=O)NC1CCCC1)C(=O)C(=O)Nc1ccc2c(c1)OCCO2
-1% | O=C1c2ccccc2C(=O)N1CC(=O)N1c2ccccc2Sc2ccc(C(F)(F)F)cc21
-6% | CCOC(=O)[C@H]1[C@H]2COc3ccccc3[C@@H]2N2C(=O)c3cc(Br)ccc3NC(=O)[C@@]12C
-11% | CC(=O)Nc1cc(-c2ccc(F)cc2)[nH]n1
2% | Cc1cc(C)c2sc(N(CCCN(C)C)C(=O)CN3C(=O)c4ccccc4C3=O)nc2c1
-6% | c1ccc2c(c1)oc1c(NCc3ccc4c(c3)OCO4)ncnc12
2% | Cc1cccc(NC(=S)NN2CCN(C)CC2)c1C
-11% | Cn1nnnc1SCC(=O)NCc1cccc(C(=O)O)c1
1% | Cc1ccc(C)c(OCc2cc(C(=O)N(C)Cc3nccn3C)no2)c1
2% | O=C(CSc1nc(-c2ccc(F)cc2)nc2ccc(F)cc12)Nc1cccc(C(=O)O)c1
4% | COc1ccc(N2C(=O)CSC2c2ccc([N+](=O)[O-])cc2)cc1 (configuration not stated)
3% | CCOC(=O)c1ccc(Nc2nc3nonc3nc2Nc2cccc(C)c2C)cc1
-1% | COc1ccccc1NC(=O)c1ccc(-n2cccn2)nc1
11% | CC(C)c1ccc(NC2CCCN(C(=O)c3cc(C(C)C)[nH]n3)C2)cc1 (configuration not stated)
3% | Cc1ccc(Cl)cc1NC(=O)c1sc(-n2nc(C)c(Cc3ccc4c(c3)OCO4)c2C)nc1C
-1% | C=CCC1(NC(C)c2ccccc2)CCCCC1 (configuration not stated)
u | COc1ccccc1NC(=O)C1CCCCC1
5% | O=C1COc2ccc(-c3cc(-c4ccccc4)c4c(n3)-c3cc(Cl)ccc3OC4)cc2N1
13% | CCc1ccc(OCC(=O)OC2CCS(=O)(=O)C2)cc1 (configuration not stated)
-4% | O=C(CCSc1nc(-c2ccc3c(c2)OCO3)cc(C(F)(F)F)n1)NCc1ccccc1
-8% | CCCCN(C(=O)CSCc1ccc(C)cc1)c1c(N)n(Cc2ccccc2)c(=O)[nH]c1=O
-12% | CN(C)CCO/N=C(\c1ccc(Br)cc1)c1cccnc1
-7% | Clc1ccc(Nc2nc3cccnc3s2)cc1
-1% | COc1ccc(Nc2nc(N)nc(CSc3nc4ccccc4s3)n2)cc1
3% | Cc1cccc(NC(=O)Nc2c(C)[nH]c(=O)[nH]c2=O)c1C
-4% | CC(=O)Nc1nc2n(n1)C(c1ccc(F)cc1)C=C(c1ccccc1)N2 (configuration not stated)
-8% | CCn1c(SCC(=O)N2CCCc3ccccc32)nc2c(c1=O)SC(C)C2 (configuration not stated)
6% | CN1CC[C@@]2(CCCN(C(=O)c3cccn3C)C2)C1
15% | COc1ccc(C(=O)O)cc1NCc1cccnc1
-15% | Brc1ccsc1/C=N/Nc1ccccc1
-16% | O=C(CSc1nncs1)Nc1ccc2c(c1)OCO2
u | Cc1cccc(-n2c(Cc3cc(=O)[nH]c(=O)[nH]3)nnc2SCC(=O)Nc2cccc(C(F)(F)F)c2)c1
-14% | S=C(Nc1cccc(Cl)c1)NC1CC2CCCC(C1)N2C1CCCC1 (configuration not stated)
-12% | [O-]/[N+](=C/c1ccccc1)c1ccccc1
5% | O=C(NC1CCCCC1)N1CCSC1=Nc1ccccc1
9% | CCCn1c(=S)[nH]c2cc(C(=O)N(CCO)Cc3ccccc3)ccc2c1=O
-1% | NS(=O)(=O)c1ccc(CCNc2ccc(C(F)(F)F)cn2)cc1
-5% | CCOC(=O)c1c(NC(=O)CSc2nnc(C)c(=O)[nH]2)sc2c1CCCC2
-2% | C=CCn1c(O)c(C2=c3ccccc3=NC2=O)s/c1=N/c1nccs1
-3% | CCc1ccc(OCCNC(=O)c2ccccc2SCc2ccccc2)cc1
12% | CN(Cc1cccs1)C(=O)CCNS(=O)(=O)c1ccc(Br)cc1
3% | Cc1ccc(NC(=O)Cn2c(=O)n(CCCCC(=O)NCc3ccccc3Cl)c(=O)c3ccccc32)cc1C
-2% | CCC/C(C)=N/NC(=O)c1ccccc1O
14% | CCc1nc2oc3ccccc3c(=O)c2c(=O)n1-c1ccccc1
25% | COc1ccc(NC(=O)Cn2nnc(-c3ccccc3NC(=O)C3CC3)n2)cc1
-9% | O=C(c1cnn(-c2ccccc2)c1)c1ccccc1O
11% | Cc1nnc(SCC(=O)Nc2nsc(-c3ccc(Cl)cc3)n2)s1
8% | CC[N+]1(C)CCC(=C2c3ccccc3CC(=O)c3sccc32)CC1 (configuration not stated)

Three of the entries above in order of the VDR inh value, highest first:
VDR inh | SMILES
14% | CCc1nc2oc3ccccc3c(=O)c2c(=O)n1-c1ccccc1
12% | CN(Cc1cccs1)C(=O)CCNS(=O)(=O)c1ccc(Br)cc1
-15% | Brc1ccsc1/C=N/Nc1ccccc1

Other entries follow.
VDR inh | SMILES
0% | CC(CCc1ccco1)NC(=O)CSc1cc(=O)n(C)c2ccccc12 (configuration not stated)
-10% | CC(c1ccc(Cl)cc1)n1c(-c2ccc3ccccc3n2)n[nH]c1=S (configuration not stated)
-6% | COc1ccccc1CNC(=O)C1CCC(CNS(=O)(=O)c2ccccc2)CC1 (configuration not stated)
-6% | CCOC(=O)CSC1=C(C#N)C(c2ccccc2F)C(C(C)=O)=C(C)N1 (configuration not stated)
-4% | O=S(=O)(c1ccccc1Br)N1CCN(c2nc(-c3ccccc3)nc3ccccc23)CC1
-8% | COc1ccc(N2C(=O)CC(c3ccc(OC(C)C)cc3)C2=O)cc1 (configuration not stated)
-18% | COc1ccc(CCNC(=O)Cc2c(Cl)cccc2Cl)cc1
17% | COc1cc(Cl)c(NC(=O)C2CCN(S(=O)(=O)c3c(C)noc3/C=C/c3ccccc3F)CC2)c(OC)c1
15% | O=C(CSc1nc2ccccc2s1)N1c2ccccc2Sc2ccc(C(F)(F)F)cc21
